Compound activity (PubChem BioAssay)
NPYLR7 agonist: agonists of mosquito NPYLR7 receptor, primary screen, cell-based, Aedes aegypti, calcium fluorescence, mosquito biting behavior; HEK293T NPYLR7/Galpha15, GCaMP6s calcium fluorescence; activation, % at 10 µM; 270,000 compounds, 0.15% hits; in the data active = activation above about 40%;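 note: 0% = vehicle and 100% = reference agonist at the receptor; some compounds past the cut are filed as inactive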
NPYLR7 agonist max-min: recorded beside NPYLR7 agonist, whose call it bears; activation, %; measured here: Max-Min RFU normalised activation; some inactives read as strong as hits;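 span of the calcium signal over five minutes; 0% = vehicle and 100% = native peptide agonist; compound fluorescence can raise it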
Numbers without * were called inactive; & = joins results of further samples. The list is partial; count on the stated rates, not on these rows.

SMILES | NPYLR7 agonist | NPYLR7 agonist max-min
COc1cccc(-c2nc3ccccn3c2NC(=O)c2cc(Cl)cc(Cl)c2)c1 | -12 | -11
CCOC(=O)C1CCCN(C(=O)c2csc(CSc3nnc(C)n3-c3cccc(Cl)c3)n2)C1 (stereo not given) | -4 | 4
O=C(NCCc1ccccn1)c1nn(-c2cccc(Cl)c2)c(=O)n(Cc2cccc(F)c2)c1=O | -2 | 0
CCn1ncc(S(=O)(=O)N2CCC3(CC2)C(=O)Nc2ccccc23)c1C | 1 | -3
COCCn1cc(NC(=O)NCc2ccc(OC)cc2)c2ccccc21 | 13 | 4
COCCNC(=O)[C@@]1(OCc2ccc(F)cc2)CC(OCc2cccc(Cl)c2)[C@@H]2OC(C)(C)O[C@@H]2C1 (stereo not given in full) | 28 | 16
NC(=O)c1cccc(NC(=O)Cc2cccc(Cl)c2)n1 | 10 | 4
CCCOc1cc(Nc2ccc(NC(=O)Nc3ccc(F)cc3)cc2)nc(C)n1 | 6 | -1
CC(C)COc1ccc(C(=O)N2CCC(c3ccccc3)C2C)cn1 (stereo not given) | -1 | 0
CC1CCCC(C)N1C(=O)c1csc2c1CCCC2 (stereo not given) | 4 | 4
COc1ccc(S(=O)(=O)N2CCC(NC(=O)CCC3CCCCC3)CC2)cc1 | 3 | 7
COc1cc(CNC(C)c2cccc(Cl)c2)cc2c1OCCO2 (stereo not given) | -3 | -3
COc1cccc(-c2nc(COc3ccc(C)cn3)cs2)c1 | 8 | -5
CCOC(=O)c1c(NC(=O)C(C)Oc2ccccc2)c(-c2cccc(F)c2)cn1C (stereo not given) | 22 | 14
CCCC(C)(CO)NC(=O)Nc1ccc(F)cc1OC1CCCC1 (stereo not given) | 1 | 1
CC12CCC3c4ccc(O)cc4CCC3C1CCC2=O (stereo not given) | 12 | 7
Oc1ccccc1C1NCCCn2cccc21 (stereo not given) | 6 | 7
CCCn1ccnc1S(=O)(=O)C(C)C(=O)Nc1ccc(CC)cc1 (stereo not given) | 9 | 4
O=C(O)[C@H]1C[C@@H](C(=O)Nc2ccc(F)cc2)CN(Cc2ncc[nH]2)C1 | 8 | 6
CC1(C(=O)NCCC(F)(F)F)Cc2c(-c3cccc(C(N)=O)c3)ccnc2O1 (stereo not given) | -15 | -15

Next section; it opens with the 6 that closed the last part.
SMILES | NPYLR7 agonist | NPYLR7 agonist max-min
CCCC(C)(CO)NC(=O)Nc1ccc(F)cc1OC1CCCC1 (stereo not given) | 1 | 1
CC12CCC3c4ccc(O)cc4CCC3C1CCC2=O (stereo not given) | 12 | 7
Oc1ccccc1C1NCCCn2cccc21 (stereo not given) | 6 | 7
CCCn1ccnc1S(=O)(=O)C(C)C(=O)Nc1ccc(CC)cc1 (stereo not given) | 9 | 4
O=C(O)[C@H]1C[C@@H](C(=O)Nc2ccc(F)cc2)CN(Cc2ncc[nH]2)C1 | 8 | 6
CC1(C(=O)NCCC(F)(F)F)Cc2c(-c3cccc(C(N)=O)c3)ccnc2O1 (stereo not given) | -15 | -15
O=C(O)CCn1c(=O)oc2cc(Cl)ccc21 | -4 | 4
CC(C)(C)CC(=O)Nc1ccc(N2CCC(Cc3ccccc3)CC2)c(C(=O)NCCN2CCOCC2)c1 | -6 | 4
CCOC(=O)C1(Cc2ccccc2C(F)(F)F)CCN(Cc2cccnc2)CC1 | 4 | -1
CCN(CC1CCCN(CCc2cccc(OC)c2)C1)C(=O)Cn1ccnc1 (stereo not given) | 2 | 2
COc1ccc2c(c1OC)OC[C@@H](c1ccc(OC)c(OC)c1OC)C2 | -7 | -13
CCc1nc(CNC(=O)NOC)cs1 | 16 | 9
CCOC(=O)N1CCN(CC(=O)Nc2cc(C)c3c(=O)oc4ccccc4c3n2)CC1 | -3 | -4
O=C(CCC(=O)NC1CCCC1)NCc1cc(-c2ccccc2)n[nH]1 | 5 | 2
CCCS(=O)(=O)CCN1CCN(C)CC12CCCCC2 | 3 | 1
O=C1NCCN2CCN(C(=O)c3n[nH]c4c3CCCC4)CC12 (stereo not given) | 6 | 1
CC(C)SC(NC(=O)OCc1ccccc1)C(=O)NCc1cccs1 (stereo not given) | -8 | -10
COc1cccc(CC(=O)Nc2cnc3cnc(-c4ccc5[nH]ccc5c4)cn23)c1 | -2 | -9
CCCCCC(=O)N1CCN(C(=O)c2cc(-c3ccc(Cl)cc3)n(-c3ccc(OC)cc3)c2C)CC1 | -6 | 1
Cc1cc(C)cc(-n2c(C)cn3c4c(=O)n(CCN5CCCCC5)c(=O)n(C)c4nc23)c1 | 2 | -1
CCCCc1ccc(C(=O)N2CCN(C(=O)CCCSc3nnc(-c4ccccc4)n3-c3ccccc3OC)CC2C)cc1 (stereo not given) | -3 | 3
CC(C)c1ccc(NC(=O)Nc2ccc(N3CCCC3)c(C(=O)NCc3ccc(F)cc3)c2)cc1 | 6 | 5
CC(C(=O)Nc1cc(Cl)cc(Cl)c1)N1CCN(CC(=O)N2CCCCCC2)CC1 (stereo not given) | 7 | 11
CC1=CC(=NNc2nc3ccccc3[nH]2)CC(C)(C)C1 | 0 | 0
CCCCCCCCC(=O)Nc1ccccc1C1SCC(=O)N1c1ccc(OC)cc1OC (stereo not given) | 7 | 7
COc1ccc(CCC2CCCCN2C(=O)c2cnc(C)s2)cc1OC (stereo not given) | 8 | 5

Single records, from the list above. Order of values: NPYLR7 agonist | NPYLR7 agonist max-min
`CCc1nc(CNC(=O)NOC)cs1` is entered as 16 | 9
`CCCCCC(=O)N1CCN(C(=O)c2cc(-c3ccc(Cl)cc3)n(-c3ccc(OC)cc3)c2C)CC1` is entered as -6 | 1

Next structures.
SMILES | NPYLR7 agonist | NPYLR7 agonist max-min
Cc1cc(C)n(CC(C)NC(=O)c2cn(Cc3ccccc3Cl)nn2)n1 (stereo not given) | 10 | 12
O=C1NC(=O)c2c1cc1ccc3ccccc3c1c2-c1ccccc1 | -10 | -14
COc1ccc(-n2ncc3c2CCN(C(=O)C2=NNC(=O)CC2)C3)cc1 | 1 | -1
COc1cc(-n2cnnn2)ccc1NCCC(=O)c1ccc(OC)c(OC)c1 | 6 | 1
Cc1ccc2nc(N3CCN(c4ccccc4F)CC3)c(C=O)c(=O)n2c1 | -1 | -12
COc1ccc(C(NC(=O)C2CCCCC2)c2nccn2C)cc1 (stereo not given) | 3 | -1
Cc1ccc(-c2nc3c(OCc4ccccc4)cccn3c2NC2CCCCC2)cc1 | -7 | 1
CCSc1nnc(SCC(=O)c2c(N)n(CC(C)C)c(=O)n(C)c2=O)s1 | 0 | 6
Cc1ncoc1C(=O)N1CCOc2c(O)cc(-c3csc4ccccc34)cc2C1 | 2 | 1
CCCCCCOc1ccc(-c2ccc(-c3noc(-c4ccc([N+](=O)[O-])cc4)n3)cc2)cc1 | -9 | -18
C=C(C)Cn1c(N/N=C\c2ccc(Br)cc2)nc2c1c(=O)[nH]c(=O)n2C | 4 | -2
COc1ccc(C2=NN(C(=O)CN3CCN(Cc4ccccc4)CC3)C(c3ccccc3)C2)cc1 (stereo not given) | -2 | 5
CC(Cl)=CCSc1nc2c(c(=O)n(C)c(=O)n2C)n1Cc1ccccc1 | 2 | 1
CCN1CCN(C(=O)c2ccc(CSc3nnc(-c4cccc(OC)c4)n3-c3ccccc3F)cc2)CC1 | 9 | 24
COc1ccc(N(C)S(=O)(=O)c2ccc(OC)c(N3CCN(S(=O)(=O)c4ccc(Br)cc4)CC3)c2)cc1 | 19 | 7
N#CCc1cc(-c2ccccc2)on1 | -7 | -8
COc1cn(CC(=O)NC(C)(C)C)c(CSc2nc(C)cc(C)n2)cc1=O | -3 | -8
O=C(Nc1ccc2c(c1)OCO2)C1CCN(C(=O)COc2ccccc2)CC1 | -1 | -3
Cc1ccc(-n2nnnc2SCC(=O)Nc2ccc(N(C)C)cc2)cc1 | 7 | 2
CC(=O)O[C@@H](C)C(=O)N1CCN(c2nccc(-c3ccc(N4CCOCC4)cc3)n2)CC1 | 3 | 0

Quoted at random: 2 entries already listed.
SMILES | NPYLR7 agonist | NPYLR7 agonist max-min
O=C(Nc1ccc2c(c1)OCO2)C1CCN(C(=O)COc2ccccc2)CC1 | -1 | -3
Cc1cc(C)n(CC(C)NC(=O)c2cn(Cc3ccccc3Cl)nn2)n1 (stereo not given) | 10 | 12

Returning to the listing, repeating the 6 entries before the break.
SMILES | NPYLR7 agonist | NPYLR7 agonist max-min
COc1ccc(N(C)S(=O)(=O)c2ccc(OC)c(N3CCN(S(=O)(=O)c4ccc(Br)cc4)CC3)c2)cc1 | 19 | 7
N#CCc1cc(-c2ccccc2)on1 | -7 | -8
COc1cn(CC(=O)NC(C)(C)C)c(CSc2nc(C)cc(C)n2)cc1=O | -3 | -8
O=C(Nc1ccc2c(c1)OCO2)C1CCN(C(=O)COc2ccccc2)CC1 | -1 | -3
Cc1ccc(-n2nnnc2SCC(=O)Nc2ccc(N(C)C)cc2)cc1 | 7 | 2
CC(=O)O[C@@H](C)C(=O)N1CCN(c2nccc(-c3ccc(N4CCOCC4)cc3)n2)CC1 | 3 | 0
Cc1nc(N[C@H]2CCN(Cc3ccccc3)C2)c2cnn(C)c2n1 | 15 | 4
C=CCNC(=O)Nc1ccc(C(=O)NC(C)CC)cc1C (stereo not given) | 6 | 5
C/C(=N/O)C1OC(C)(C)OC1(C)C (stereo not given) | -1 | -4
O=C(Nc1cccc(-c2nc3ccccc3o2)c1)c1cccc(F)c1 | -2 | -4
CCOC(=O)c1nn(-c2ccccc2)c(=O)c2c(NC(=O)c3cccc(C)c3)scc12 | 1 | 0
CCN1C(=O)c2cc(NS(=O)(=O)C(C)C)ccc2Oc2ccccc21 | 8 | 6
C=CCN(C(=O)c1cccc([N+](=O)[O-])c1)C(C)C(=O)c1c(C)c(C(=O)OCC)n(C)c1C (stereo not given) | -8 | -5
O=C(NCc1ncc[nH]1)c1ccccc1C1CCNC1 (stereo not given) | -1 | -3
COc1ccc(CCN(C)C(=O)/C=C(\C)CCC=C(C)C)cc1OC | -5 | -11
O=c1ccc2ccc(OCc3cc(=O)n4ccsc4n3)cc2o1 | -1 | 3
CCOC(=O)CCNC(=O)N1CCn2cccc2C1c1cc(OC)ccc1OC (stereo not given) | 9 | 5
Cc1cnc(C(=O)N2CCC(Oc3cccc(C(=O)NCc4ccccn4)c3)CC2)cn1 | 11&19 | 9&14
OCC1(CCc2ccccc2)CCCN(Cc2cn[nH]c2-c2ccccc2)C1 (stereo not given) | 4 | 2
CCOC(=O)N1CCN(C(=O)c2csc(CSc3nnc(-c4ccncc4)n3-c3ccccc3F)n2)CC1 | -4 | 5
CCOC(=O)c1cnc(C2CC2)nc1NCc1cccc(C)c1C | 18 | 23
O=C(O)CCC(=O)N1N=C(c2c(-c3ccccc3)c3cc(Cl)ccc3[nH]c2=O)CC1c1ccco1 (stereo not given) | 4&-6 | 3&-5
COc1ccc(OC)c(NC(=O)C2(C)CCN2Cc2ccc3c(c2)OCCO3)c1 (stereo not given) | 12 | 5
Fc1ccc(CSc2nc(Oc3cccc(Cl)c3)cc(C(F)(F)F)n2)cc1F | 1 | 2
COCCCn1c(=O)c(C#N)cc2c(=O)n3ccccc3nc21 | 3 | -1
COCCn1c(N/N=C\c2ccc(OC)cc2)nc2c1c(=O)[nH]c(=O)n2C | 8 | 13
N#CCc1ccc(Oc2ccc(C(=O)O)cc2)cc1 | -3 | -5
COc1ccccc1C(C)N(C)CCN1C(=O)NC2(CCCC2)C1=O (stereo not given) | 10 | 8
O=C(COc1ccc(F)cc1)OCc1cc(-c2ccccc2F)on1 | 1 | -2
COCCCn1c(SCC(=O)N2c3ccccc3Sc3ccccc32)nc2ccccc2c1=O | 1 | 4
CCOCCOc1nc(-c2ccc(C)cc2)n(-c2cccc(NC(=O)CC(C)(C)C)c2)n1 | 22 | 10
c1cnc(N2CC[N+]3(CCCC3)CC2)nc1 | 0 | 7
Cc1ccc(C)c(CCNC(=O)CCNC(=O)c2ccccc2F)c1 | -5 | -14
CSC(C)C(=O)Nc1ccn(CCCC#N)n1 (stereo not given) | -6 | 598
O=C1c2ccccc2CCC1CNCCc1ccc(O)cc1 (stereo not given) | -9 | -14
Cc1ccn2c(=O)cc(CSc3nnnn3C3CCCC3)nc2c1 | 0 | 12
CCc1noc(C)c1C(=O)Nc1nnc(C2CC2)s1 | 2 | 1
COCCn1cc(C(=O)NC2CCCCCC2)c2nn(-c3ccccc3)c(=O)c-2c1 | 6 | 6
